High-throughput results: PubChem BioAssay, several laboratories
PABP FP inh: blocks human PABP binding to poly(A) RNA; fluorescence polarization; inhibition, % at 35 µM; P11940; 1% of 290,000 active; AID 2014;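 active = 50% or more with normal probe brightness, or confirmed in later tests; inconclusive = above 50% with abnormal brightness, or retests that disagree; inactive = below 50% or failed in later tests; about a fifth of its hits are not listed in these tables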;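 note: calls also rest on retests at 20 µM and on dose response follow-up; controls were probe without protein and protein plus probe with vehicle; some compounds called inactive have numbers as strong as hits; many hits fall short of the cut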
Target sequence (P11940 whole entry, looked up): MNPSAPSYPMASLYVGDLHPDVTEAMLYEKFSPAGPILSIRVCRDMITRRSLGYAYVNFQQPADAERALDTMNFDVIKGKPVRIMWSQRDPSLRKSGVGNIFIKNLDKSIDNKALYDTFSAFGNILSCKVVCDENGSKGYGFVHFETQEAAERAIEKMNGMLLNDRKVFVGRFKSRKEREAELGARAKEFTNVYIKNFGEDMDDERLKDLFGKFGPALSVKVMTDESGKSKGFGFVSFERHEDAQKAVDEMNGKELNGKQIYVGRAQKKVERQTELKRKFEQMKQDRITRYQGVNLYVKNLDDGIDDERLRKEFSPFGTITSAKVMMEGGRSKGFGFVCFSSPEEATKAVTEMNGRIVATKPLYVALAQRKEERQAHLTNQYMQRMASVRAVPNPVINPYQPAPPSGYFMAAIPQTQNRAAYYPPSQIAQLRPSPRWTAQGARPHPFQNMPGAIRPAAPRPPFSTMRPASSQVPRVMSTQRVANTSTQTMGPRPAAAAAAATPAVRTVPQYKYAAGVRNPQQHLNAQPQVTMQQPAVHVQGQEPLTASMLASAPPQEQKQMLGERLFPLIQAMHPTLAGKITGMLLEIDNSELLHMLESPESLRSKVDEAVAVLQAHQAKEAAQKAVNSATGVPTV
eIF4H FP inh: inhibitors of RNA binding by human eIF4H; Q15056; eIF4H fluorescence polarization binding assay; inhibition, % at 35 µM; 0.94% of 290,000 active; AID 2012;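 active = 50% or more with normal probe brightness, or confirmed in later tests; inconclusive = above 50% with abnormal brightness, or retests that disagree; inactive = below 50% or failed in later tests; about a fifth of its hits are not listed in these tables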;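 note: calls also rest on retests at 20 µM and on dose response follow-up; 0% = protein and probe with vehicle and 100% = probe without protein; strong numbers were not always called active; many hits fall short of the cut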
HIV Env fusion: HIV envelope-mediated fusion inhibition. HeLa-JRFL Env/CEM21 cell fusion, luciferase. inhibition, % at 12.3 µM. 1.1% of 360,000 active. AID 651610;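 active = mean replicate inhibition score of at least 50 and every replicate individually at or above 50; inconclusive = only one of the two criteria met; inactive = mean below 50 and not all replicates reaching 50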;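 note: 0% = plate neutral controls and 100% = maraviroc near 300 nM; one replicate is shown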
MT1-MMP act inh: MT1-MMP (human) activation inhibition; GFP/RFP ratio change, % at 20 µM; P50281; 0.061% of 360,000 active; HT1080 RFP-PRO-GFP cells, GFP/RFP ratio fluorescence, overnight; percent of plate control window, DMSO zero; AID 651647;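 active = GFP/RFP ratio change of at least 30% with cell ATP level not reduced by more than half and red fluorescence within 50% of control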; note: strong numbers were not always called active
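Material: RFP-PRO-GFP reporter HT1080 cells. Dosing: single-point 20 µM compound, 1% DMSO. Controls: DMSO and RFP-L50D-GFP cell wells. Timing: cells overnight before dosing, compound overnight, 37 °C, 5% CO2. Measure: GFP/RFP fluorescence ratio.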
Rce1 inhib: inhibitors of yeast Ras-converting enzyme; yeast membranes, quenched prenylated peptide cleavage fluorescence; 0.27% of 290,000 active; calls only; Q03530;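 active = fall in fluorescence gain of 50% or more versus controls, with final raw signal at or below 3038400; inconclusive = same 50% fall but final raw signal above 3038400; inactive = fall in fluorescence gain under 50%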;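 note: plate controls were neutral control wells for no effect and wells lacking membranes for full effect; tested at 10 µM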
CSC inhib: blocks cancer stem cells; cancer stem cell-like cells viability, luminescence; 1.1% of 300,000 active; inhibition, % at 7.5 µM;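 active = mean at 75% or more and at least half the replicates too; inconclusive = mean and replicates disagree; tested in HMLE shEcad cells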;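 note: 0% = median of negative and 100% = median of positive control wells; the first replicate is given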
UUG fidelity: yeast start codon fidelity modulation | S. cerevisiae UUG-firefly luciferase reporter, luminescence/redox ratio | activity score, % at 18.7 µM | 0.13% of 350,000 active | AID 602363;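 active = replicate mean at a twofold rise or more, about +100% in these data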;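 note: firefly luciferase made from a UUG start codon reports start codon fidelity; reporter light over untreated wells divided by growth signal over untreated wells; some hits fall short of that in this replicate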
eIF4H FP inh retest: further read-out of eIF4H FP inh, marked with its call; inhibition, %; compound at 20 µM; confirmation average;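 mean of two retest wells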
PABP FP inh retest: also measured in PABP FP inh; calls as there; inhibition, %; compound at 20 µM; confirmation repeats;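 mean of two retest wells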
MT1-MMP act inh RFP: recorded beside MT1-MMP act inh, whose call it bears; RFP signal change, %; measured here: RFP expression control read;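 0 = vehicle wells; hits needed this value within 50% of zero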
Starred values were filed as active, the others as inactive; i = inactive; ? = inconclusive; . = no result given.

SMILES | PABP FP inh | eIF4H FP inh | HIV Env fusion | MT1-MMP act inh | MT1-MMP act inh RFP | Rce1 inhib | CSC inhib | UUG fidelity | others
COc1cc(/C=C/c2cc[n+](C)cc2)ccc1OCC(=O)Nc1ccccc1 | 42 | 10 | 2 | -1 | 3 | i | -3 | 1
CN(Cc1cnn(C)c1)C(=O)C1CCCCC1C(=O)O (stereo unspecified) | -6 | -5 | -48 | -4 | -3 | . | -3 | -13
Cc1ccc(C(=O)c2oc3ccccc3c2N)cc1 | 3 | -2 | . | 0 | 4 | i | -3 | -31
Cc1c(NC(=O)Nc2cccc(Cl)c2)c(=O)n(-c2ccccc2)n1C | 11 | 0 | 22 | 0 | 4 | i | -8 | -12
O=C1Oc2ccccc2C(=O)/C1=C/c1ccccc1O | 8 | -7 | 1 | 0 | 2 | i | -60 | .
CC1(C2CC2)NC(=O)N(CC(=O)N2CCN(c3ccccc3)CC2)C1=O (stereo unspecified) | . | . | . | 1 | 5 | . | -19 | -11
COC(=O)CCC(NC(=O)c1cc(C)oc1C)C(=O)OC (stereo unspecified) | 4 | 3 | . | 2 | 5 | i | -9 | -3
NC(=O)CC(NC(=O)Cc1ccc(Cl)cc1)c1ccc(NC2CCCC2)c([N+](=O)[O-])c1 (stereo unspecified) | -17 | -10 | 8 | 4 | 6 | i | 28 | -11
CCc1nnc(NC(=O)CCC(=O)N2CCN(C3CCCCC3)CC2)s1 | 2 | 4 | . | 1 | 7 | i | 0 | -3
CC1=NN(c2ccccc2)C(=O)/C1=C\c1ccc(Oc2ccc([N+](=O)[O-])cc2[N+](=O)[O-])cc1 | -3 | -6 | -15 | 2 | -6 | i | 3 | .
COc1cc(NC(=O)CSc2ncnc3sc4c(c23)CCCC4)c(C(=O)O)cc1OC | -2 | -6 | 24 | 0 | 4 | i | -11 | -13
COc1ccc(S(=O)(=O)N2CCOCC2)cc1Cl | 1 | -2 | . | 0 | 4 | i | -6 | -18
CCN1CCN(C(=O)CCCCCn2c(=O)[nH]c3cc(C(=O)OC)ccc3c2=O)CC1 | -1 | -2 | -1 | -1 | 2 | i | -13 | -15
O=S(=O)(c1ccc(Cl)cc1)N1CCN(Cc2ccc(O)c3ncccc23)CC1 | -20 | 10 | -5 | 2 | -7 | i | 89* | .
CCN(C(=O)COC(=O)c1ccccc1OCc1ccc(Cl)cc1)C1CCS(=O)(=O)C1 (stereo unspecified) | . | . | 25 | -4 | 2 | . | -22 | -1
CC1(C)CN(c2ccc(-c3ccnc4ncnn34)cc2)C1=O | 7 | 7 | -24 | 4 | 5 | i | 15 | .
Cc1ccc(CNC(=O)C2=NNC(=O)CC2)cc1 | 5 | 4 | -14 | 2 | 6 | i | . | -11
COc1ccc(N=Cc2c(O)n(-c3cccc(C)n3)c(=O)c3ccccc23)c(OC)c1 | ? | ? | -107 | -122 | -2 | i | -6 | -7
Cc1nc2n(n1)C(O)c1cc([N+](=O)[O-])ccc1S2 (stereo unspecified) | 7 | -2 | . | . | . | i | -3 | .
CC12COC3(C(=O)Nc4ccc(Cl)cc4)CC1CCC32C (stereo unspecified) | -5 | 10 | 0 | 0 | -1 | i | 12 | .
Cn1ccc(C(=O)OCC(=O)c2ccccc2)n1 | 2 | -9 | -43 | 0 | 0 | i | -23 | -6
COc1ccc(S(=O)(=O)N2CCC(C(=O)Nc3ccccc3N3CCCCC3)CC2)cc1OC | -9 | -15 | 3 | -8 | -15 | i | -17 | 2
CCC(=O)N1c2ccc(S(=O)(=O)CCC(=O)N3CCN(c4ccccc4F)CC3)cc2CC1C (stereo unspecified) | -3 | 9 | -57 | 2 | 0 | i | -11 | 1
Cc1ccc(-c2nc3ccccc3[nH]2)cc1NC(=O)c1ccco1 | -1 | 6 | . | 1 | 0 | . | -17 | 1
CS(=O)(=O)c1ccc(-c2cccc(NC(=O)c3ccc4c(c3)OCO4)c2)nn1 | . | . | -21 | -3 | 3 | . | . | -19
COc1ccc(NC(=O)CSc2nc(N3CCCCC3)nc(N3CCCCC3)n2)cc1 | -8 | -1 | 2 | 1 | -4 | i | . | -10
Cc1c(C)c(C)c(C(=O)C2CCN(c3ccc([N+](=O)[O-])cn3)CC2)c(C)c1C | 33 | 17 | 8 | 2 | -4 | i | -2 | .
CCOC(=O)CN1C=C(c2ccc3ccccc3n2)C(C[N+](=O)[O-])c2ccccc21 (stereo unspecified) | 125 | 130 | . | -238 | -14 | i | -11 | 37 | eIF4H FP inh retest=2;PABP FP inh retest=3
Cc1cccc(NC(=O)C2CCN(S(C)(=O)=O)CC2)c1C | -2 | -4 | 13 | -2 | 3 | . | -11 | -11
O=C(NCCC1=CCCCC1)C1CCN(c2nc3ccccc3o2)CC1 | 2 | -10 | 20 | 4 | -3 | i | -3 | -2
Cc1occc1C(=O)N/N=C/C=C\c1ccccc1[N+](=O)[O-] | -7 | -5 | 12 | 3 | 6 | i | -5 | .
COc1ccc2c(c1)CC/C2=N\NC(=O)c1ccccc1 | 8 | 6 | -32 | 6 | 8 | i | 3 | .
COc1ccccc1NC(=O)Cn1ncc2c1-c1ccccc1OC2 | -14 | -4 | -35 | 0 | 1 | i | 2 | -1
Cc1occc1C(=O)N1CCCC(N2CCN(c3cccc(C(F)(F)F)c3)CC2)C1 (stereo unspecified) | 12 | -1 | 22 | -2 | -8 | i | 9 | -1
CCCCNC(=O)N1CCN(C(c2ccccc2)c2ccccc2)CC1 | -2 | -7 | . | -5 | -5 | i | 9 | .
O=S(=O)(c1ccc(Br)s1)N1CCN(c2ccccc2)CC1 | -7 | -7 | -4 | 0 | -1 | i | 12 | -14
C/C(CC1CC2=C(CC1(C)C)C(C)(C)CCC2)=N\NC(N)=S (stereo unspecified) | -3 | 8 | 51 | 3 | -5 | i | . | .
COc1cccc(/C=N\NS(=O)(=O)c2ccccc2)c1OC | -3 | 2 | -13 | 1 | -2 | i | -6 | -8
Cc1ccc(S(=O)(=O)N2CCOCC2)cc1NC(=O)COC(=O)c1ccco1 | . | . | 12 | 5 | 5 | . | . | -12
CCC(C(=O)NC(C)(C)C)N(Cc1ccc(OC)cc1)C(=O)c1snc(C(N)=O)c1N (stereo unspecified) | . | . | ? | 1 | -1 | . | . | -7
Cc1cc(NC(=O)COC(=O)CCC(=O)c2ccc(F)cc2)no1 | 5 | 10 | . | 2 | 2 | i | -9 | -12
CCOC(=O)c1cc(-c2ccncc2)nc2c1c(C)nn2-c1ccccn1 | . | . | -58 | 5 | -1 | i | -4 | -9
O=C(O)CCC(=O)NCc1cn(-c2ccccc2)nc1-c1cccc(Br)c1 | -8 | -12 | 20 | 11 | 5 | i | -10 | -13
COc1ccc(CCNC(=O)C(C(=O)c2ccc(F)cc2)n2ccccc2=O)cc1OC (stereo unspecified) | -3 | -3 | . | 1 | 2 | i | -13 | .
CC(C)(C)c1ccc(OCc2ccc(C(=O)NN)o2)cc1 | -6 | -1 | -41 | -3 | 2 | i | 29 | .
Brc1ccc(N=C(c2ccccc2)c2ccncc2)cc1 | 0 | -8 | 10 | 2 | -1 | i | -10 | .
CCCCCn1c(N2CCN(c3cccc(Cl)c3)CC2)nc2c1c(=O)[nH]c(=O)n2C | 4 | 5 | . | -2 | 0 | i | 5 | 28
COc1ccccc1N1CCN(C(=O)COc2cc(C)ccc2C)CC1 | 3 | -3 | 4 | 8 | -3 | i | 1 | .
C[n+]1ccccc1/C=C/c1ccccc1Cl | 90* | 79* | -9 | -7 | -3 | i | -16 | -14
C[C@H](CO)N1C[C@H](C)[C@@H](CN(C)C(=O)Nc2ccc(C(F)(F)F)cc2)Oc2c(NC(=O)Cc3ccccc3)cccc2C1=O | . | . | 4 | 0 | 0 | . | -7 | 8
COc1ccc2nc(NCCCNC(=O)c3cc(OC)c(OC)c(OC)c3)c(C#N)cc2c1 | 28 | -4 | -189 | -7 | 4 | i | -16 | -20
CC(C)OCCCNC(=O)CNC(=O)c1ccc(Cl)c(Cl)c1 | 2 | -5 | 10 | 2 | -1 | i | -9 | .
CCOC(=O)c1cccc(NC(=O)Nc2cc(OC)ccc2OC)c1 | 4 | -9 | 8 | 6 | -9 | i | 6 | 4
CCCCN(Cc1ccccc1)C(=O)C1CCC(=O)N(CCc2ccccn2)C1 (stereo unspecified) | 12 | -2 | -13 | -3 | 0 | i | -9 | -6
CCCc1cc(C(=O)Nc2nccs2)cs1 | -6 | -2 | -100 | 9 | -4 | i | . | -47
Cc1ccc(S(=O)(=O)C2(S(=O)(=O)c3ccc(C)cc3)CCCC2)cc1 | -1 | -1 | 36 | 0 | 0 | i | 53 | -13
CCOC(=O)CSc1nc2sc3c(c2c(=O)[nH]1)CCCC3 | -9 | -8 | -15 | 7 | 0 | i | -14 | 13
CCC(C)NC(=O)Cn1cc(S(=O)(=O)N2CCN(c3ccccc3F)CC2)c2ccccc2c1=O (stereo unspecified) | -2 | -7 | -7 | -1 | -2 | i | 0 | .
O=C(NC1CCCCC1)C(c1ccc(Cl)cc1)N(C(=O)c1ccccn1)c1cccnc1 (stereo unspecified) | -2 | 2 | . | . | . | i | -16 | .

As a short view, some entries already given.
SMILES | PABP FP inh | eIF4H FP inh | HIV Env fusion | MT1-MMP act inh | MT1-MMP act inh RFP | Rce1 inhib | CSC inhib | UUG fidelity | others
CCOC(=O)CSc1nc2sc3c(c2c(=O)[nH]1)CCCC3 | -9 | -8 | -15 | 7 | 0 | i | -14 | 13
CCC(C)NC(=O)Cn1cc(S(=O)(=O)N2CCN(c3ccccc3F)CC2)c2ccccc2c1=O (stereo unspecified) | -2 | -7 | -7 | -1 | -2 | i | 0 | .
O=C(NC1CCCCC1)C(c1ccc(Cl)cc1)N(C(=O)c1ccccn1)c1cccnc1 (stereo unspecified) | -2 | 2 | . | . | . | i | -16 | .

Molecules listed so far containing a furan ring, fused or not:
SMILES | PABP FP inh | eIF4H FP inh | HIV Env fusion | MT1-MMP act inh | MT1-MMP act inh RFP | Rce1 inhib | CSC inhib | UUG fidelity | others
Cc1ccc(C(=O)c2oc3ccccc3c2N)cc1 | 3 | -2 | . | 0 | 4 | i | -3 | -31
COC(=O)CCC(NC(=O)c1cc(C)oc1C)C(=O)OC (stereo unspecified) | 4 | 3 | . | 2 | 5 | i | -9 | -3
Cc1ccc(-c2nc3ccccc3[nH]2)cc1NC(=O)c1ccco1 | -1 | 6 | . | 1 | 0 | . | -17 | 1
Cc1occc1C(=O)N/N=C/C=C\c1ccccc1[N+](=O)[O-] | -7 | -5 | 12 | 3 | 6 | i | -5 | .
Cc1occc1C(=O)N1CCCC(N2CCN(c3cccc(C(F)(F)F)c3)CC2)C1 (stereo unspecified) | 12 | -1 | 22 | -2 | -8 | i | 9 | -1
Cc1ccc(S(=O)(=O)N2CCOCC2)cc1NC(=O)COC(=O)c1ccco1 | . | . | 12 | 5 | 5 | . | . | -12
CC(C)(C)c1ccc(OCc2ccc(C(=O)NN)o2)cc1 | -6 | -1 | -41 | -3 | 2 | i | 29 | .

Some of the compounds tested; rates above refer to the full screens.
